Rango release inh: inhibition of RanGTP-driven Rango-importin beta dissociation; 340,000 tested, 0.071% active; Biochemical FRET Rango-importin beta, RanGTP-induced dissociation; Potency, µM (highest dose often 46.1 µM), for the others: at the highest dose activity change, negative = inhibition; AID 540253; active means falling FRET ratio curve, often poorly fitted, with flat reads before Ran was added; inconclusive means other falling curves, or compound fluorescence or quenching; inactive means flat or rising ratio curve;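 further: potency means the concentration at half of the fitted maximal effect; % of control where 0% means no effect; nearly all actives have a fitted effect of over 45% in size; -100% = wells without RanGTP and RCC1; the record marks most hits as doubtful in a second field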
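Compounds sat 5 min at room temperature with 0.1 uM Rango biosensor plus 0.25 uM importin beta, then FRET pre-read. RanGTP-RCC1 (0.6 uM Ran, 2mM GTP, 0.2 uM RCC1) added for 45 min, and the CFP/YFP post-read measured blocked complex dissociation.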
miR-21 reporter: raises the signal of a miR-21 reporter | 340,000 tested, under 10 active | Potency, µM (top dose mostly 38.3 µM), without a hit: top-dose reporter change, positive = more light | HeLa miR-21 FLuc reporter, luciferase, 48 h; active = well fitted rising curve with a large enough effect; inconclusive = small, poorly fitted or top-dose-only effect; inactive = no such curve, though single readings can be large or run the other way;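 further: % of control where 0% means no effect; miR-21 action dims this reporter so a rising signal means less miR-21 action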
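Luminescence from a firefly luciferase reporter carrying a miR-21 binding site downstream, stably expressed under a CMV promoter in HeLa cells that make miR-21 endogenously, reports miRNA modulation after 48 h compound exposure up to approximately 40uM final.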
Rango complex inh: Rango-importin beta binding inhibition. Rango CFP/YFP FRET sensor + importin beta, 45 min. 340,000 tested, 0.031% active. Potency, µM (top dose mostly 92.2 µM), without a hit: top-dose inhibition of complex formation; active = rising FRET ratio curve, often small or poorly fitted; inconclusive = mostly compound fluorescence or quenching in the first reads; inactive = flat curves in all reads;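 further: potency means the concentration at half of the fitted maximal effect; 0% = DMSO wells and 100% = buffer wells lacking importin beta; nearly all actives have a fitted effect of over 15% in size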
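FRET biosensor (snurportin 1 IBB flanked by EYFP and cerulean), 50 nM, with compound 5 min, then 0.125 microM importin beta in PBS, 1 mM DTT, 0.02% Tween-20, 0.1% BSA. CFP/YFP ratio read after 45 min at room temperature; pre-read flags interference.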
GLA inh pH 4.5: inhibitors of human alpha-galactosidase A at pH 4.5; purified enzyme, 4-MU-alpha-Gal fluorescence, pH 4.5; activity change, negative = inhibition, % at 105 µM; 230,000 tested, under 10 active; inconclusive = small, poorly fitted or top-dose-only inhibition, or a rising curve; inactive = flat fitted curve, though single readings scatter; no compound was filed as active;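 further: 0% = full activity with enzyme and -100% = basal without enzyme; dose as in the result columns while the protocol names 77 µM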
Target sequence (P06280 whole entry, looked up): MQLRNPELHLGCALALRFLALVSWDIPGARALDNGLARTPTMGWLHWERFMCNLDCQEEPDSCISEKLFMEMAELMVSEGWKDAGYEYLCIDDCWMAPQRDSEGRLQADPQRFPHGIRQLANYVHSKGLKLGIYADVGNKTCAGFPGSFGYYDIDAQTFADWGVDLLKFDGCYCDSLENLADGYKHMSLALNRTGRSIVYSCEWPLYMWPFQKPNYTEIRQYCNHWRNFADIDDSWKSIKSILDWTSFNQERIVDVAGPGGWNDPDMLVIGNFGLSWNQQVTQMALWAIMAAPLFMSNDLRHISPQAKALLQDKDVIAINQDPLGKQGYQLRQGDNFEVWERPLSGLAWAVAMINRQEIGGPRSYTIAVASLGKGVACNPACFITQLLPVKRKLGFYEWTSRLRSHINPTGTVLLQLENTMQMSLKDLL
The depositor's hits bear a star; ? = inconclusive; . = no result given; & = joins results of further samples; [ ] = dose if it differs, or a comment.

Rango release inh	miR-21 reporter	canonical_smiles	Rango complex inh	GLA inh pH 4.5
-24.7%	-9.6%	CN(C)c1nc2c(c(=O)n(C)c(=O)n2C)n1Cc1ccccc1	-0.5%	9.3
7.2%	10.4%	CCOc1ccc(Nc2nc(Cl)nc(N3CCN(c4ccc(OC)cc4)CC3)n2)cc1	1.3%	-17.7
1.9%	22.3%	Nc1ccc(Br)cc1C(=O)O	3.3%	-3.9
9.4%	3.0%	O=C(NCc1ccco1)C(c1ccccc1)N(Cc1ccccc1)C(=O)Cn1nnc2ccccc21 (stereo not drawn)	?	0.6
3.1%	0.6%	Cn1nccc1NC(=O)CSCC(=O)O	-0.4%	-4.6
18.2%	-5.7%	CCOc1ccc(C2C(C#N)=C(N)Oc3cc(C)n(CCN4CCOCC4)c(=O)c32)cc1OCC (stereo not drawn)	0.6%	-7.2
-1.7%	-9.8%	O=c1cc(-c2ccccc2)[nH]c2[nH]n(-c3ccccc3)c(=O)c12	5.0%	?
1.3%	7.1%	Cc1ccc(S(=O)(=O)/N=C(\N)c2ccc(F)cc2)cc1	1.5%	6.1
-17.8%	-20.2%	COc1ccc(CCNCC(O)Cn2ccc3ccccc32)cc1OC (stereo not drawn)	-2.8%	1.2
-0.2%	-2.8%	CCOc1ccccc1/C=N/NC(=O)c1cccc(Cl)c1	-0.6%	4.7
-4.9%	-5.6%	COCCn1c(-c2ccc3ccccc3c2)nc2c1c(=O)[nH]c(=O)n2CC(C)C	-4.8%	.
0.4%	.	O=C1CCC(C(=O)OC(C(=O)Nc2cc(Cl)cc(Cl)c2)c2ccccc2)=NN1 (stereo not drawn)	-1.9%	.
0.0%	.	COc1ccc(C(=O)COC(=O)c2cc3ccccc3oc2=O)c(OC)c1	-2.1%	.
-15.2%	-10.5%	CCNc1sc(C(=O)OCC)c(N)c1C#N	-2.0%	-2.3
-5.3%	-1.5%	CC1CCN(S(=O)(=O)c2cccc(S(=O)(=O)N3CCOCC3)c2)CC1	?	6.0
-5.4%	0.7%	COCCNC(=O)C(=O)NCC1OCCN1S(=O)(=O)c1ccc2c(c1)OCCO2 (stereo not drawn)	-2.7%	5.5
-10.8%	-6.8%	CC(=O)NC(CCS(C)(=O)=O)C(=O)Nc1cc(Cl)ccc1Cl (stereo not drawn)	0.3%	-27.5
-1.0%	0.9%	CS(=O)(=O)c1ccc(C(=O)Nc2ccc(N3CCOCC3)cc2)c(Cl)c1	-1.4%	7.2
-3.4%	-8.0%	CCc1ccc(CN(C)C(=O)c2cc(COc3cccc(C(F)(F)F)c3)on2)nc1	-0.2%	.
15.4%	6.0%	CCOc1cc(/C=N/NC(=O)c2ccc(NC(=O)C3CC3)cc2)ccc1O	-0.5%	.
14.2%	-33.3%	COc1ccccc1C(=O)Nc1cc(C)on1	-5.9%	.
-10.1%	4.2%	COc1ccc(S(=O)(=O)N2CCC(C(=O)N3CCCCCC3)CC2)cc1	-1.4%	-3.5
11.4%	-11.6%	CC(CC(=O)Nc1cc([N+](=O)[O-])ccc1Cl)c1ccccc1 (stereo not drawn)	-0.8%	-1.6
-3.7%	-5.9%	COc1cc(OC)cc(C(=O)NC(=S)NCc2ccco2)c1	7.5%	-10.0
-3.4%	-42.1%	O=C(NCc1ccc2c(c1)OCO2)C1COc2ccccc2O1 (stereo not drawn)	-0.5%	-0.6
-10.9%	.	CN(CC(=O)Nc1c(Cl)cccc1Cl)C(=O)c1cc(-c2cccs2)nn1-c1ccccc1	-3.2%	.
6.1%	-2.6%	Cc1cc(C)c2[nH]c(=O)c(CN(Cc3ccc4c(c3)OCO4)Cc3nnnn3C3CCCC3)cc2c1	-5.1%	-4.9
8.2%	-0.2%	CCn1cc(/C=C(\NC(=O)c2cc(OC)c(OC)c(OC)c2)C(=O)NCCN2CCOCC2)c2ccccc21	-0.7%	.
-3.8%	-5.8%	Cn1ccc(C(=O)N2CCCc3ccccc32)n1	4.7%	-18.0
4.2%	.	CSCc1ccc(C(=O)NCC(c2cccs2)N2CCOCC2)cc1 (stereo not drawn)	6.3%	.
3.5%	-3.5%	CS(=O)Cc1cc(Sc2ccccc2)nc(-c2cccnc2)n1 (stereo not drawn)	1.4%	3.1
-12.4%	-31.5%	N#Cc1c2n(c3c(=O)n(Cc4ccc(Cl)cc4)cnc13)CCCC2	-0.1%	-1.6
-7.8%	.	Cc1cc(NC(=O)CCn2c(=O)sc3ccccc32)no1	-1.8%	.
-22.8%	9.3%	C=CCOC(=O)C1=C(C)NC(SCC(=O)Nc2ccc(C)c(Cl)c2)=C(C#N)C1c1ccco1 (stereo not drawn)	0.6%	24.8
7.4%	-5.9%	CCOc1ccc(/C=C/C(=O)Nc2ccc(OC)cc2[N+](=O)[O-])cc1	?	2.7
9.9%	-3.8%	O=C(COc1cccc(-n2cnnn2)c1)N1CCOCC1	-3.4%	7.9
-0.1%	-1.3%	O=C(O)c1ccc(C2(c3ccc(C(=O)O)cc3)OC(=O)c3ccccc32)cc1	2.9%	.
12.3%	-55.6%&-52.5%	COc1ccc(-c2nc3ccccc3s2)cc1NC(C)=O	5.5%	-1.3
13.9%	-4.2%	Cc1cc(OCC(O)CNC(C)(C)C)ccc1Cl (stereo not drawn)	2.5%	-4.9[21.1 µM]
-3.9%	0.0%	COc1ccc2[nH]cc(CCNC(=O)Cc3c(F)cccc3Cl)c2c1	5.7%	.
4.4%	-3.2%	Cc1c(Cl)cccc1NC(=O)CCN1C(=O)C2CC=CCC2C1=O (stereo not drawn)	0.0%	.
-14.6%	-4.5%	O=C1CCC(C(=O)N2CCSCC2)CN1Cc1ccc(Cl)cc1 (stereo not drawn)	1.6%	.
-3.8%	1.8%	O=C(c1ccc([N+](=O)[O-])c(CS(=O)(=O)c2ccc(Cl)cc2)c1)N1CCCCC1	-4.1%	-2.5
6.4%	.	Cc1c(C(=O)OCC(=O)N2CCC(C)CC2)oc2ccccc12	-0.3%	.
-2.7%	.	CNC(=O)C1(C)C=CC2(CCCCC2)N1C(=O)OC (stereo not drawn)	-1.3%	0.5

2 entries from above, set out differently.
Rango release inh,miR-21 reporter,Rango complex inh,GLA inh pH 4.5,smiles
-10.1%,4.2%,-1.4%,-3.5,COc1ccc(S(=O)(=O)N2CCC(C(=O)N3CCCCCC3)CC2)cc1
0.0%,.,-2.1%,.,COc1ccc(C(=O)COC(=O)c2cc3ccccc3oc2=O)c(OC)c1

More entries follow.
Rango release inh	miR-21 reporter	canonical_smiles	Rango complex inh	GLA inh pH 4.5
-13.7%	-2.2%	COc1cc(NC(=O)CS(=O)(=O)c2ccccc2)cc(OC)c1OC	0.1%	-4.7
-5.6%	-6.8%	CCOc1ccc(N(C(C)C(=O)Nc2cccnc2)S(C)(=O)=O)cc1 (stereo not drawn)	-2.7%	-2.0
?	-5.9%	O=C(Cn1c(=O)oc2ccccc21)NCc1ccco1	1.4%	6.1
1.0%	-21.9%	O=C(N=Nc1c(O)n(Cc2ccccc2)c2ccccc12)c1ccncc1	-0.3%	-25.3
6.9%	-8.4%	O=C(NCCOC(=O)C1COc2ccccc2O1)C1COc2ccccc2O1 (stereo not drawn)	-2.7%	1.9
-8.3%	0.0%	COc1cccc(C(=O)N2CCN(Cc3ccc(OC)cc3OC)CC2)c1	-0.7%	.
-7.2%	-4.8%	CCOC(=O)c1[nH]c(C)c(/C(O)=C2\C(=O)C(=O)N(CCN(C)C)C2c2ccco2)c1C (stereo not drawn)	-0.4%	-1.1
14.4%	9.5%	CCOC(=O)N1CCC(NC(=O)CSCc2nc(-c3sccc3C)oc2C)CC1	1.1%	-1.3
7.1%	12.0%	CCOC(=O)C1CCN(S(=O)(=O)c2ccc3c(c2)NC(=O)C(C)S3)CC1 (stereo not drawn)	3.7%	.
1.1%	-48.7%	O=C1c2ccccc2CN1CCSC(=S)N1CCOCC1	0.9%	-1.9
-8.0%	1.1%	Nc1nonc1-n1nnc(C(=O)N/N=C/c2cccnc2)c1-c1cccs1	-3.4%	.
-4.5%	.	N#Cc1ccc(OCC(=O)NNC(=O)C2CCCCC2)cc1	-1.1%	.
-2.5%	0.2%	COCCNC(=O)C(c1ccc(F)cc1)N(Cc1ccco1)C(=O)CCC(=O)Nc1nccs1 (stereo not drawn)	?	3.0
-9.0%	-15.7%	COC(=O)c1ccccc1NC(=O)CCCn1nc([N+](=O)[O-])c(Br)c1C	-0.6%	2.2
-9.8%	-9.2%	COC(=O)CC1COc2ccccc2N1C(=O)c1cccc(Cl)c1 (stereo not drawn)	4.9%	-19.5
2.7%	-46.0%	O=C(NCc1csc(-c2cccs2)n1)c1ccccc1	3.8%	-11.2
2.5%	-42.2%	Cc1nn(-c2nc3ccccc3s2)c(N)c1-c1ccccc1	1.6%	-2.8
-10.0%	.	O=C(NC[C@H]1CCCO1)c1cccc2c1C(=O)c1ccc(-c3ccc(F)cc3OCc3ccccc3)cc1S2(=O)=O	?	.
?	-3.6%	CSC1=N/C(=C\C=C\c2cccs2)C(=O)S1	?	-2.3
19.7%	-3.9%	COc1cccc(NC(=O)COC(=O)c2c(-c3ccccc3)noc2C)c1	6.1%	-4.4
-10.4%	-0.5%	O=C(CSc1nc(Nc2ccccc2)nc(N2CCOCC2)n1)Nc1ccc([N+](=O)[O-])cc1	6.3%	-7.9
6.3%	.	O=C(COC(=O)c1cc[n+]([O-])cc1)Nc1c(Cl)cccc1C(F)(F)F	-1.2%	.
-5.7%	-2.0%	O=C(O)CN1C(=O)Nc2ccc(Br)cc2C1c1ccccc1 (stereo not drawn)	-1.3%	-1.5
-5.4%	-55.0%	CC(/C=N/NC(=O)CSc1ccccn1)=C\c1ccc(C(C)C)cc1	-2.8%	-7.5
27.0%	-32.4%	CN(C)/C=C1\C(=O)N(c2ccc(Cl)cc2)CS1(=O)=O	2.8%	13.5
-12.2%	.	Cc1ccc(OCC(=O)NNC(=O)C2CSC3(C)CCC(=O)N23)cc1C (stereo not drawn)	0.9%	.
3.9%	-2.7%	COc1c(C)cc(C(=O)C2CCCN(C(=O)c3ccc4cc[nH]c4c3)C2)cc1C (stereo not drawn)	-0.3%	-18.0
-7.8%	.	COc1cccc(C(=O)OCC(=O)N2CCc3ccccc3C2)c1	-0.3%	.
-2.8%	.	COc1cc(C)c(NC(=O)C2CCN(S(=O)(=O)c3cccs3)CC2)cc1OC	0.7%	.
-0.5%	-8.7%	O=c1c2cc(Br)ccc2nc(-c2ccccc2)n1O	1.4%	.
5.7%	-2.1%	CCNC(=S)N1CCN(S(=O)(=O)c2ccc(C)c(C)c2)CC1	6.1%	-22.4
-9.3%	-3.5%	Cc1cc(C)c(S(C)(=O)=O)c(Oc2ccccc2C)n1	-0.3%	-16.3
6.4%	-10.7%	Cc1ccc(-n2ncc(C#N)c2/N=C/N2CCOCC2)cc1	-4.2%	-11.7
1.8%	.	Cc1ccc(C(=O)CCC(=O)Nc2ncccc2C)cc1	1.1%	.
-11.3%	-50.3%	CC1(c2ccc(NC(=O)c3ccccc3F)cc2)CC1(Cl)Cl (stereo not drawn)	4.8%	.
14.7%	0.8%	Cc1cccc(C)c1NC(=O)CS(=O)CC(=O)N1CCN(c2ccccc2)CC1 (stereo not drawn)	-5.4%	.
-7.8%	-3.9%	COc1ccccc1CCc1nnc(CCC(=O)NC(C)Cc2cccc(C)n2)o1 (stereo not drawn)	-5.6%	4.4
29.9%	-11.3%	CCC1C=C(c2ccccc2)C=CN=C1N(CC)CC (stereo not drawn)	1.0%	-15.1
-0.1%	.	CC(C)[C@@H](C(=O)OCC(=O)c1ccc2c(c1)NC(=O)CO2)N1C(=O)c2ccccc2C1=O	-2.2%	.
4.0%	-1.2%	CN(C(=S)Nc1ccccc1)c1ccccc1	0.0%	13.9
-0.6%	-0.7%	CCNC(=S)N1CCN=C1Nc1nc(C)cc(C)n1	-2.5%	4.1
?	-4.8%	N#Cc1c(-c2cccs2)cc(-c2cccnc2)nc1N	?	8.5

High-throughput results deposited in PubChem by National Center for Advancing Translational Sciences (NCATS).

Some of the compounds tested; rates above refer to the full screens.
